# SmPrx2 inh – Schistosoma mansoni Prx2 inhibition; S. mansoni Prx2 activity coupled to TGR/GSH (TGR is thioredoxin glutathione reductase), NADPH fluorescence loss, qHTS; some inactives read as strong as hits; Potency, µM; 0.07% of 65,000 active; AID 448; active means full or partial inhibition curve with a strong effect at the top dose; inconclusive means weaker partial or single-point curve; inactive means no accepted curve; further: series up to 57 µM; many of its hits are not listed in these tables
#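 Prx2 activity was followed as the loss of NADPH fluorescence (ex 365/em 450 nm), read every 30 sec for 8 min after H2O2 start. The enzyme mix (50 nM Prx2, 25 nM TGR, GSH, NADPH; pH 7.4 phosphate buffer) was incubated with compound for 15 min at room temperature first.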
# Anthrax LT inh – anthrax lethal toxin internalization inhibition. Potency, µM (top dose mostly 40 µM), inactives show at the highest dose activity change, negative = inhibition, actives largely listed as inhibitors. Cells, anthrax lethal toxin internalization, FRET ratio (460/530). 0.67% of 70,000 active; active = well fitted falling ratio curve with the 530 nm signal flat; inconclusive = other ratio curves, or a change in one channel alone; inactive = flat curves in the ratio and both channels; the % refers to the ratio; further: on the % scale 0 is the no-effect control and ±100 the full control effect; nearly all actives have a fitted effect of over 50% in size; tested in ME-180 cells; beta-lactamase reporter
# Numbers without * were called inactive; ? = inconclusive; · = no result given; [ ] = dose if it differs, or a comment. Potency means the concentration at half of the fitted maximal effect.
SMILES,SmPrx2 inh,Anthrax LT inh
CCN(CC)S(=O)(=O)c1ccc(NC2c3ccccc3C(=O)N2Cc2ccc3c(c2)OCO3)cc1 (stereo not given),>57,?
NC(=S)c1ccc[n+]([C@@H]2O[C@@H](COP(=O)([O-])OP(=O)(O)OC[C@@H]3O[C@@H](n4cnc5c(N)ncnc54)[C@@H](OP(=O)(O)O)[C@H]3O)[C@@H](O)[C@H]2O)c1,>57,1.4%
O=S1(=O)N=C2CCCN2C(c2ccc(F)cc2)N1 (stereo not given),>57,-4.4%
CC(C)C1Cc2[nH]c(=O)c(C(=O)O)cc2CO1 (stereo not given),>57,?
CCN(CC(=O)NC1CCS(=O)(=O)C1)C(=O)C(c1ccccc1)c1ccccc1 (stereo not given),>57,-1.7%
N#CC1=C(N)N2C(=C(C#N)C13CCN(Cc1ccccc1)CC3)Nc1ccccc12,>57,5.2%
CC(C)=CCc1c(O)cc(O)c2c1O[C@H](c1ccccc1)CC2=O,>57,?
Cc1ccc(-c2cc(-c3ccc(C)o3)nc(N)c2C#N)cc1,>57,·
O=C(CSc1ccc(Cl)cc1)Nc1ccc(N2CCN(C(=O)c3ccco3)CC2)cc1,>57,?
COc1cc(NC(=O)c2csc3c2CCCC3)ncn1,>57,-3.6%
CCOC(=O)OCC1OC(C#Cc2ccccc2)C=CC1Oc1cccc(N(C)C)c1 (stereo not given),·,-18.3%[8 µM]
Cc1ccc(-n2c(SCC(=O)Nc3ccc4c(c3)OCO4)nnc2-c2ccoc2C)cc1,>57,-16.3%
COc1ccc(N(Cc2cc3ccccc3[nH]c2=O)C(=O)C2CCCO2)cc1 (stereo not given),>57,?
O=C(CC(C(=O)N1CCc2ccccc21)n1ccnc1)NCc1cccnc1 (stereo not given),>57,-3.3%
COCCn1c(N)c(S(=O)(=O)c2cccs2)c2nc3ccccc3nc21,>57,?
O=C(O)c1cccc(N2CCCCS2(=O)=O)c1,>57,3.1%
CCN1CCN(C(=O)c2cc3c(-c4ccc(Cl)cc4)nn(C)c3s2)CC1,>57,4.6%
Cc1noc(C)c1-c1cncnc1NCc1ccccc1,>57,-13.3%
COc1cccc(NC(=O)N[C@@H](Cc2ccccc2)C(=O)O)c1,>57,7.9%
CC1Cc2ccccc2N1C1=NS(=O)(=O)c2ccccc21 (stereo not given),>57,-2.2%
CN(c1ccccc1)c1ccc(/C=c2\s/c(=C(/C#N)C(=O)C(C)(C)C)n(Cc3ccco3)c2=O)cc1,>57,-17.0%
Cc1ccc(C(=O)Nc2c(C(=O)N3CCOCC3)cnn2-c2ccccc2)cc1,·,-12.1%
Cc1ccc2cc(CN(Cc3ccc(F)cc3)Cc3nnnn3C3CCCC3)c(=O)[nH]c2c1,>57,-2.7%
c1ccc(C2NCc3ccccc3-n3cccc32)cc1 (stereo not given),>57,?
O=C1OC(=O)c2cc([N+](=O)[O-])ccc21,·,-10.0%
COc1cc2c(cc1OC)[C@]13CC[N@+]4(C)CC5=CCO[C@H]6CC(=O)N2[C@@H]1[C@@H]6[C@@H]5C[C@]34O,>57,0.7%[8 µM]
CC1=CC2(C#N)C3(N=C(N)C2(C#N)C(c2ccccc2)N1)OCCO3 (stereo not given),>57,-0.3%
CS(=O)(=O)N1CCN(c2ccccc2NC(=O)c2ccc(-c3ccc(Cl)cc3Cl)o2)CC1,>57,?
CCc1ccc(NC(=O)CSc2nc3c(c(=O)n(C)c(=O)n3C)n2C)cc1,>57,-3.1%
CCCOc1ccc(C(=O)CCN2CCCCC2)cc1,>57,-24.7%
COC(=O)c1c(NC(=O)CN2CCN(C(=O)c3ccco3)CC2)c2cc(C)ccc2n1C,>57,1.6%
COc1ccc(S(=O)(=O)Nc2cc(C)ccn2)cc1OC,>57,-3.0%
COc1ccc(S(=O)(=O)NCC(c2cccnc2)N2CCN(c3ccc(F)cc3)CC2)cc1C (stereo not given),>57,?
COCCSc1nnc(NC(=O)Cc2ccccc2OC)s1,>57,-2.8%
CCOc1ccccc1N1C(=O)CC(Sc2ncccc2C(=O)O)C1=O (stereo not given),>57,7.0%
CCOc1ccc(-c2cc(C(=O)O)c3ccccc3n2)c(OCC)c1,·,-0.8%
NCCCP(=O)(O)O,>57,4.2%
CC(=O)c1c(C)nc(C)nc1NC(=O)C(C)C,>57,-0.4%
O=C(Cn1nnc(-c2ccccc2)n1)NCc1ccccc1,>57,?
CCOc1ccccc1N1CCN(c2nc(N)c(C#N)c(CC#N)c2C#N)CC1,>57,?
CCCOc1ccc(C2C(C(=O)c3ccc(C)o3)=C(O)C(=O)N2CCCn2ccnc2)cc1 (stereo not given),>57,8.2%
N#C/C(=C(/O)COC(=O)CCC1CCCCC1)c1nc2ccccc2[nH]1,>57,1.9%
COC(=O)c1[nH]c2ccc(F)cc2c1NC(=O)C1=COCCO1,>57,?
COc1ccc(-c2cc(OC)c3c(C)oc(C)c3c(=O)c2)cc1OC,>57,-4.1%
CCOCCCNC(=O)c1cccs1,·,-13.1%
CC(=O)OCCOc1nc(N(C)C)nc(N(C)C)n1,>57,-12.4%
CCOC(=O)N1CCN(C(=O)c2ccc3c(SCC(=O)O)c4c(nc3c2)CCCC4)CC1,>57,1.9%
Clc1ccc2c(NCCNc3ccnc4cc(Cl)ccc34)ccnc2c1,>57,?
COC(=O)Cc1c(C)c2ccc(OCC(C)=O)c(C)c2oc1=O,>57,4.8%
COc1ccccc1N1CCN(C(=O)COc2ccc(Cl)cc2)CC1,>57,-3.4%
Cc1ccccc1CN1CCN(CC(=O)NCCCN2CCN(c3ccc(F)cc3)CC2)C1=O,>57,4.3%
CCCCn1c(N2CCC(Cc3ccccc3)CC2)nc2c1c(=O)[nH]c(=O)n2C,>57,?
COc1ccc(S(=O)(=O)N(CC(=O)NC2CC2)c2ccc(C)cc2)cc1OC,>57,2.9%
Cc1sc2nc(CN3CCN(S(=O)(=O)c4cccc5nonc45)CC3)[nH]c(=O)c2c1C,>57,-5.4%
CCN(CCNC(=O)C1CCCN(Cc2nc(-c3ccc(OC)cc3)oc2C)C1)c1ccccc1 (stereo not given),>57,?
N=c1c(C(=O)NCc2ccc(F)cc2)cc2c(=O)n3ccccc3nc2n1Cc1ccco1,>57,·
COc1ccc(OCCSc2ncnc3nc[nH]c23)cc1,>57,-6.6%
O=C(CCCn1c(SCC(=O)NCC2CCCO2)nc2ccccc2c1=O)NCC1CCCO1 (stereo not given),>57,11.1%
CC(C)c1ccc2oc(=O)cc(CN3CCN(c4ccc(F)cc4)CC3)c2c1,>57,10.9%
CC(=O)Nc1cccc(Oc2cc(C#N)c(C#N)cc2N2CCOCC2)c1,>57,-2.6%

# Next part:
SMILES,SmPrx2 inh,Anthrax LT inh
Cn1c(SCc2ccccc2F)nnc1-c1cnccn1,>57,3.0%
COc1ccccc1-c1cncnc1Nc1ccccc1,>57,-6.3%
O=C1CCCN1C(=O)CCC(=O)N1CCCC1=O,>57,-0.9%
CCOC(=O)c1c(C)[nH]c(C)c1C(=O)COC(=O)C1CCCN1S(=O)(=O)c1ccccc1F (stereo not given),·,4.3%
Cc1onc(-c2ccccc2Cl)c1C(=O)Nc1cccc(-c2nc3ncccn3c2C)c1,>57,-4.9%
CN(C)/C=C1\C(=O)c2ccc(N(C)C)nc2CC1c1ccccc1 (stereo not given),>57,?
CCC12CC3CC(C1)CC(C(=O)O)(C3)C2,>57,-14.3%
CCc1c(C)nc2[nH]nc(-c3ccccc3C)n2c1=O,>57,4.1%
O=C1CS/C(=N\C(=O)N2c3ccccc3Sc3ccccc32)N1,·,-16.5%
CSC(N)=NCCC[C@@H](N)C(=O)O,>57,?
Cc1ccccc1-c1cncnc1N1CCN(C)CC1,>57,-6.1%
Cn1c(=O)cnc2cnc(Oc3ccccc3)nc21,>57,-7.8%
CS(=O)(=O)c1ccc2nc(NC(=O)Oc3ccccc3)sc2c1,>57,2.5%
COc1ccc(-c2nc(CS(=O)(=O)CC(=O)NCCc3cc(OC)ccc3OC)c(C)o2)cc1,>57,-5.6%
Cc1nc(N(C)C)c2sc(=S)n(C)c2n1,>57,-5.3%
c1ccc2c(-c3nc(C4CCCCC4)no3)cc(-c3ccncc3)nc2c1,>57,·
Cc1cc(N2C(=O)C3CCCN3C2c2ccc(Cl)c(Cl)c2)no1 (stereo not given),>57,-7.7%
COc1ccccc1N1CCN(c2nc(-c3ccccc3)cc(C(F)(F)F)n2)CC1,>57,1.6%
COc1ccc(CCNS(=O)(=O)c2ccc(C(=O)NCc3ccco3)cc2)cc1OC,>57,-13.4%
COc1ccc(-c2cn3cccnc3n2)cc1NC(=O)C1CC1,>57,-4.2%
COc1ccccc1NC(=O)CN1C(=O)C(C)Oc2ccccc21 (stereo not given),>57,-10.3%
CCN(CC)C(=O)CSc1nnc2sc3ccccc3n12,>57,-1.4%
CS(=O)(=O)N(CC(=O)NCC1CCCO1)c1cc(Cl)cc(Cl)c1 (stereo not given),>57,-0.3%
CS(=O)(=O)c1ccc(N)cc1,>57,-3.9%
CCOC(=O)c1ccc(NC(=O)N2CCN(Cc3cccc(F)c3)CC2)cc1,>57,-19.2%
O=C(O)C1C(c2ccccc2)C(C(=O)OCCCO)C1c1ccccc1 (stereo not given),>57,-1.7%
CCN1C[C@]2(COC(=O)c3ccccc3N3C(=O)C[C@H](C)C3=O)CC[C@H](OC)[C@@]34[C@@H]5C[C@H]6[C@H](OC)[C@H]5[C@](O)(C[C@@H]6OC)[C@@](O)([C@@H](OC)[C@@H]23)[C@@H]14,>57,?
COC(=O)[C@@]1(Cc2ccc(F)cc2)[C@H]2c3cc(C(=O)N4CCCC4)n(Cc4ccc(OC(F)(F)F)cc4)c3C[C@H]2CN1C(=O)c1ccccc1,>57,?
CCCCCCOC(=O)C(C#N)c1nc2ccccc2nc1N1CCN(C)CC1 (stereo not given),·,?
COc1ccc(-c2nn3c(-c4ccco4)nnc3s2)cc1OC,>57,-16.6%
CCOC(=O)N1CCC(N2C(=O)c3ccc(C(=O)O)cc3C2=O)CC1,>57,?
Nc1nc2n(n1)C(c1cccc(Br)c1)CC(c1ccccc1)N2 (stereo not given),>57,7.0%
O=C(O)c1n[nH]c2c1CCCCC2,>57,3.9%
COc1ccccc1N1CCN(S(=O)(=O)c2c(C)ccc3nsnc23)CC1,>57,-27.3%
CC1CCN(Cc2c(C#N)c3ccccc3n2C)CC1,>57,0.3%
O=C(/C=C\C=C/c1ccc2c(c1)OCO2)N1CCCCC1,>25.6,?
O=C(O)c1cc[c]([Hg][Cl])cc1,0.441*,?
O=C(OCn1nnc2ccccc2c1=O)c1cn(-c2ccccc2)nc1-c1cccnc1,>57,-6.2%
Cc1cccc2nc(Cn3c(=O)n(CCCC(=O)NCc4ccco4)c(=O)c4ccccc43)cc(=O)n12,>57,10.9%
CCOC(=O)c1c(NC(=O)c2cccs2)sc2c1CC(C)(C)OC2,>57,?
COc1cccc(CNC(=O)c2cc3oc4ccccc4c3n2C)c1OC,>57,?
O=C(Oc1ccccc1)N1CCC[C@@]2(CCN(c3ccccc3)C2)C1,>57,28.2%
CCOC(=O)C1CCCN(C(=O)Cc2ccc(OC)c(OC)c2)C1 (stereo not given),>57,15.1%
Cc1cc(C)c(C#N)c(Nc2ccccc2Cl)n1,>57,-8.0%
C=CCNc1nc(NCc2ccco2)nc(OCC)n1,>57,-3.6%
COc1ccc(N2CCN(Cc3cc(=O)oc4cc5c(cc34)CCCC5)CC2)cc1,>57,4.4%
COc1ccc(O)c(C(=O)c2cnc3onc(C(C)C)c3c2)c1,>57,-5.7%
CCCCCCOC(=O)C(C#N)c1nc2ccccc2nc1N1CCOCC1 (stereo not given),>57,-3.7%
C[C@@H]1Cc2ccccc2N1NC(=O)c1ccc(Cl)c(S(N)=O)c1 (stereo not given in full),>57,?
Cc1ccc(NC(=O)CS(=O)CC(=O)Nc2ccc(N3CCOCC3)cc2)cc1Cl (stereo not given),>57,1.9%
c1ccc(COCc2ccccc2)cc1,·,-3.3%
COc1ccc(C(=O)n2nc(-c3ccco3)nc2SC)cc1OC,>57,3.1%
Cc1ccc(NC(C(N)=O)c2c(C)[nH]c(=O)[nH]c2=O)cc1 (stereo not given),>57,-4.4%
Cc1cc(NC(=O)c2cccc(C(=O)Nc3cc(C)on3)n2)no1,>57,0.0%
COc1ccc(C2(CNC(C)=O)CCOCC2)cc1OC,>57,-20.6%
CC(C)Sc1nc(O)c(Cc2ccccc2)c(=O)[nH]1,·,?

# Screening data from PubChem.

# A portion of the library. The share of hits here may be higher or lower than overall.
